NPYLR7 agonist = mosquito NPYLR7 agonism | HEK293T NPYLR7/Galpha15, GCaMP6s calcium fluorescence | activation, % at 10 µM | hit rate 0.15% among 270,000 | AID 1259423; in the data active = activation above about 40%;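 note: 0% = vehicle and 100% = reference agonist at the receptor; some compounds past the cut are filed as inactive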
NPYLR7 agonist max-min = further read-out of NPYLR7 agonist, marked with its call; activation, %; measured here: Max-Min RFU normalised activation; some inactives read as strong as hits;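 span of the calcium signal over five minutes; 0% = vehicle and 100% = native peptide agonist; compound fluorescence can raise it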
* hit, by the source's call; & = joins results of further samples.

Sample of the layout:
Every second line gives: NPYLR7 agonist, NPYLR7 agonist max-min
Cn1cc(CN2CCOc3ccccc3C2)c(-c2ccc3c(c2)OCCO3)n1
  19, 4
Cc1nc(C)c(C(=O)NC(C)(C)c2ccccc2)s1
  10, 8
COc1cc(OC)cc(C(=O)NCc2ccc(S(=O)(=O)N3CCCCC3)s2)c1
  9, 9
COc1cccc(CN2CCn3nc(C(=O)N4CCN(c5ccccc5Cl)CC4)cc3C2=O)c1
  19, 3

Main list, from the first entry:
Every second line gives: NPYLR7 agonist, NPYLR7 agonist max-min
Cn1cc(CN2CCOc3ccccc3C2)c(-c2ccc3c(c2)OCCO3)n1
  19, 4
Cc1nc(C)c(C(=O)NC(C)(C)c2ccccc2)s1
  10, 8
COc1cc(OC)cc(C(=O)NCc2ccc(S(=O)(=O)N3CCCCC3)s2)c1
  9, 9
COc1cccc(CN2CCn3nc(C(=O)N4CCN(c5ccccc5Cl)CC4)cc3C2=O)c1
  19, 3
Cn1c(=O)c2c(nc(CN3CCN(c4ccccc4F)CC3)n2CC(=O)c2ccccc2)n(C)c1=O
  -1, -1
O=C(NCCN=C1NS(=O)(=O)c2ccccc21)c1ccccc1F
  1, 0
O=C(Cc1ccccc1)N(Cc1ccco1)Cc1c(-c2ccccc2)noc1N1CCCCC1
  2, 19
O=c1c(-c2ccco2)[n+]([O-])c2ccccc2n1OCc1ccccc1F
  1, -1
Cc1cc(C(=O)Nc2ccc(OCCO)cc2)c(C)n1-c1ccccc1
  2, 6
CCOC(=O)CSC(CC)C(=O)Nc1nnc(CC)s1 (centres undefined)
  -4, -5
c1ccc(-c2cn3c(n2)CCc2ccc4cccnc4c2-3)cc1
  22, 45
CCOC(=O)c1c[nH]c2c(C)c(Cl)ccc2c1=O
  4, 3
CCN(CC)Cc1c(O)ccc2c(C#N)c(C)n(-c3ccccc3)c12
  12, 7
O=c1c2nnn(-c3ccc(Cl)cc3)c2ncn1Cc1cccnc1
  34, 35
CCN(CC)c1ccc(CN(CC2CCCO2)C(=O)C(C)C)c(OS(=O)(=O)CC)c1 (centres undefined)
  14, 16
C=CCn1c(N2CCN(Cc3ccccc3F)CC2)nc2c1c(=O)[nH]c(=O)n2C
  -4, -5
c1ccc2[nH]cnc2c1
  -10, -14
CCN1CCC(N(C)S(=O)(=O)c2c(C)cc(C(C)(C)C)cc2C)CC1
  2, 1
CC(=O)NCc1ccccc1Oc1ccccc1F
  8, 2
COC(=O)CCn1c(=O)c2c(nc3n(CCc4ccccc4)c(C)cn23)n(C)c1=O
  2, -2
CC1CN(C(=O)CC(c2cccc(C(F)(F)F)c2)c2c[nH]c3ccccc23)CC(C)O1 (centres undefined)
  3, 8
O=C(CN1CN(c2ccccc2)C2(CCN(S(=O)(=O)c3ccc(Cl)cc3)CC2)C1=O)N1CCCC1
  -7, 6
O=C(CSc1ncnc2sc3c(c12)CCC3)N1CCOCC1
  3, 2
Cc1cc(=O)oc2cc(NS(=O)(=O)c3ccc4[nH]c(=O)sc4c3)ccc12
  0, 1
CC1(C)CC(NCC2CC=CCC2)CC(C)(C)N1 (centres undefined)
  10, 6
Cc1cnc(C)c(N2Cc3cnn(CCO)c3C2)n1
  3, 1
Cc1nnc(-c2cccc(NC(=O)C3CCN(C(=O)c4ncoc4C)CC3)c2)s1
  -5, -4
CSCc1c(C(=O)NC(C)C)oc2ccccc12
  3, 1
OC1CNc2c(ccc3ccccc23)C1 (centres undefined)
  -4, -2
Cc1ccsc1-c1cn(C(Cn2ccnc2)c2ccccc2)nn1 (centres undefined)
  3, 5
Cc1cc(NC(=O)C(=O)N(C)Cc2ccccc2OCC(C)C)no1
  11, 3
Cc1c(C(=O)NCc2ccco2)cnn1-c1ccc(F)cc1
  34, 42
CC(=O)C(C)Oc1ccc2c3c(c(=O)oc2c1)CCC3 (centres undefined)
  -7&1, -8&-2
COc1ccc(-n2c(SCC(=O)Nc3nnc(C)s3)nc3c([nH]c4ccccc43)c2=O)cc1
  -3, 31
Cc1ccc(CN(C(=O)C2CCOCC2)c2ccc(F)cc2)o1
  24, 15
CCCc1nc(C)sc1C(=O)Nc1ccc(OCC)cc1
  -13, -15
CN1CCC(C)(CNC(=O)CCc2nc3ccccc3[nH]c2=O)C1 (centres undefined)
  26, 15
CN(C(=O)c1cccc(OC(F)(F)F)c1)c1ccc(-c2onc3c2CCc2ccccc2-3)cc1
  3, 0
CCc1cc(N(C)CCc2ccc(OC)c(OC)c2)nc(SCc2ccc(C(=O)NCc3ccc4c(c3)OCO4)cc2)n1
  9, 12
CCn1c2ccccc2c2cc(CN3CCc4nnc(C(C)NC(=O)C5CC5)n4CC3)ccc21 (centres undefined)
  4, 3
O=C(c1ccccc1OC(F)(F)F)N1CCN(c2nccc(-c3cccc(C(F)(F)F)c3)n2)CC1
  15, 23
COc1ccccc1-n1c(COc2ccccc2)n[nH]c1=S
  -9, -15
COC(=O)c1sc(NC(=O)CC2OCCc3ccccc32)nc1C(C)(C)C (centres undefined)
  1, 1
Cc1c(C(=O)NCC2CCCO2)cnn1-c1ccc(Cl)c(Cl)c1 (centres undefined)
  13, 23
CN(NC(=O)/C=C/c1ccc2c(c1)OCO2)c1ccccc1
  -6, -12
CCOC(=O)c1cc(Oc2nc(C)nc3sc4c(c23)CCCC4)cc(C(=O)OCC)c1
  -4, -10
Cc1c(S(=O)(=O)NC(c2ccccc2)c2ccccc2)c(=O)n(C)c(=O)n1C
  3, 2
O=C(Nc1cccc2ccccc12)N[C@H]1CO[C@H]2[C@@H]1OC[C@@H]2n1nnnc1Oc1ccc2c(c1)OCO2
  -6, -13
Cc1ccc(S(=O)(=O)NCCCOCc2ccccc2)c(C)c1
  3, 2
Cc1cnc(C(=O)N2CCC(O)(CN(C)C)C2)cn1 (centres undefined)
  19, 15
Nc1cc(-c2ccc(Cl)c(Cl)c2)nn1-c1ccc(C(=O)NCCC(c2ccccc2)c2ccccc2)cc1
  -22, -27
Cc1nnc2sc(-c3cnn(-c4ccccn4)c3C(F)(F)F)nn12
  -1, 3
CCc1nc2n(n1)C(=O)C(C(c1ccccc1F)N1CCC(C(=O)OC)CC1)S2 (centres undefined)
  0, 3
CCOC(=O)N1CCN(C(c2cccc(Cl)c2)c2c(O)cc(C)n(CCOC)c2=O)CC1 (centres undefined)
  15, 7
O=C(CNC(=O)C1CCCCC1)NC1=NCCS1
  7, 1
COc1ccccc1Oc1cc(C(C)(C)C)nc(SCc2cccc(Cl)c2)n1
  1, 4
COC(=O)c1coc(CN2CCC(O)(CO)CC2)n1
  0, -3
CC(=O)Oc1c(-c2ccc(NC(=O)c3ccc(F)cc3)cc2)c(-c2ccc3c(c2)OCO3)nn1-c1cccc(C)c1
  18, 18
N#Cc1cc(Br)c(OC(=O)c2ccccc2)c(Br)c1
  -4, -5
Cc1cc(C(=O)NCCCN2CCOCC2)nc2cc(-c3ccccc3)nn12
  7, 8

Other compounds
Every second line gives: NPYLR7 agonist, NPYLR7 agonist max-min
O=C(CSc1nnc(NC2CC2)s1)N1CCCCC1
  3, 11
O=C(CNc1ccc2c(c1)OC(F)(F)O2)N(C1CCCCC1)C1CCS(=O)(=O)C1 (centres undefined)
  1, 0
CCc1nc2ccc(C(=O)NCCc3ccccn3)cn2c1N(C)Cc1ccc(OC)cc1
  2, -6
O=C(NCCSc1ccccc1)c1cc(=O)c2ccccc2o1
  2, 7
N#CCn1cc(NC(=O)NCc2ccc(N3CCCC3)nc2)cn1
  10, 8
CN(C)c1cccc(C(NC(=O)c2cccc(Br)c2)c2ccc(S(C)(=O)=O)cc2)c1 (centres undefined)
  -1, -6
Cc1ccc(Cn2ncc(C(O)(c3nccn3C)C(F)(F)F)c2N)o1 (centres undefined)
  5, 12
CN(C)c1nc(-c2ccccc2)nc2c1CCN(C(=O)[C@H](O)c1ccccc1)C2
  4, 1
CC(C1CC1)N(CC(F)(F)F)C(=O)Cn1nnc(-c2cccc(F)c2)n1 (centres undefined)
  0, 8
COC(=O)c1ccccc1CN(Cc1ccccc1)Cc1cccn1Cc1ccccc1C
  25, 30
COc1cc(/C=C2\SC(=Nc3ccccc3)NC2=O)ccc1OC(=O)C12CC3CC(CC(C3)C1)C2
  -12, -19
Cc1cc(CC(C)NC(=O)c2ccc3c(c2)CCO3)n[nH]1 (centres undefined)
  2, 0
Cc1cc(C(=O)OCCCN=C2NS(=O)(=O)c3ccccc32)ccc1[N+](=O)[O-]
  6, 1
CCc1cccc2c(C(CC(=O)N3CCN(C/C=C/c4ccccc4)CC3)c3ccc(Cl)cc3)c[nH]c12 (centres undefined)
  2, 14
CC(C)C12CC3CC(CC(NC(=O)Nc4nncs4)(C3)C1)C2
  -1, -7
Nc1ncnc(Nc2ccccc2F)n1
  20, 15
CCCSC1=C(N(C)C)C(=O)c2ccccc2C1=O
  0, -2
CNC(=O)COC(=O)c1cc(S(C)(=O)=O)ccc1Cl
  -8, -10
Cc1cc2ncn(-c3nn(C)c(=O)n(C)c3=O)c2cc1C
  7, 0
Cc1nc(CC(=O)N2CCOC(COCc3ccccc3)C2)c(C)s1 (centres undefined)
  20, 31
Cc1ccc(CC(=O)NC2(C#N)CCC3(CC2)OCCO3)s1
  1, 1
CCc1cnc(C)nc1N1CCN(Cc2ccc(C)cc2)C(=O)C1
  -1, -2
CCN1CC(CN(C)C(=O)Nc2nc3ccccc3s2)Oc2ccccc21 (centres undefined)
  1, -4
CCCCOCCOCC(=O)N1CCc2c(sc3[nH]c(=O)n(-c4cccc(OC)c4)c(=O)c23)C1
  4, 1
COc1cccc2c1OC(c1cccc(O)c1)NC2=O (centres undefined)
  12, 10
CN1C(=CC=NNS(=O)(=O)c2ccccc2)C(C)(C)c2ccccc21
  3, 16
CN(C)c1cc(N/N=C\c2cc3c(c([N+](=O)[O-])c2)OCO3)nc(N(C)C)n1
  -2, -16
COc1ccc2c(c1)C1(CC(=O)N(CC3CCCCC3)C1=O)C(=O)N2CCCn1c(C)nc2ccccc21 (centres undefined)
  10, 0
CCN(C(=O)c1cccc(NC(=O)C(=O)c2ccco2)c1)c1ccccc1
  0, 0
O=C(c1cc(CN2CCC(O)CC2)on1)N1CC=C(c2ccccc2)CC1
  -3, 11
CN1CCCC(C)(C(=O)Nc2cccc(Oc3ccccc3)c2)C1 (centres undefined)
  1, 0
O=C(NCC1CCCO1)c1cnn2c(C(F)(F)F)cc(-c3ccco3)nc12 (centres undefined)
  2, 2
CCCN1CCCN(C(=O)Nc2cc(C)nn2C(C)(C)C)CC1
  6, 1
CC(=O)N(CN1C(=O)c2ccc([N+](=O)[O-])cc2C1=O)c1ccc(Oc2ccc(Cl)cc2)cc1
  -1, -6
COCCNC(=O)c1ccc(CSc2nc(C)c(C)c(N3CCN(c4ccccc4F)CC3)n2)cc1
  4, 8
COc1cc(=O)n(-c2ccccc2C)nc1C(=O)NC1CCCC1
  3, 2
CCOC(=O)c1nn(CCc2ccc(OC)cc2)c2c1CN(C(=O)c1snnc1C)CC2
  10, -4
CS(=O)(=O)c1ccc(CN2CCCCC2c2cccc(F)c2)cc1 (centres undefined)
  1, -1
Cn1c(C(=O)N2CCOCC2)cc2c(=O)n3ccccc3nc21
  -3&4, 0&-2
COc1ccccc1CCC(=O)N1CCC(n2nccc2NC(=O)Cc2ccccc2)CC1
  -2, -6

An excerpt from above in order of SMILES length, smallest number first:
Every second line gives: NPYLR7 agonist, NPYLR7 agonist max-min
Cc1ccc(CC(=O)NC2(C#N)CCC3(CC2)OCCO3)s1
  1, 1
CCN1CC(CN(C)C(=O)Nc2nc3ccccc3s2)Oc2ccccc21 (centres undefined)
  1, -4
O=C(c1cc(CN2CCC(O)CC2)on1)N1CC=C(c2ccccc2)CC1
  -3, 11
COc1ccc2c(c1)C1(CC(=O)N(CC3CCCCC3)C1=O)C(=O)N2CCCn1c(C)nc2ccccc21 (centres undefined)
  10, 0

Following part
Every second line gives: NPYLR7 agonist, NPYLR7 agonist max-min
O=C(COc1ccc(Cl)cc1)N(Cc1ccccc1)Cc1ccco1
  -6, -14
CC(C)(C)NC(=O)NC1CCN(c2ccccc2C(=O)N2CCCC2)CC1
  1, 10
CCn1c(=O)c([N+](=O)[O-])c(NCCN2CCOCC2)c2ccccc21
  2, 1
O=C(NCCCn1nc(-c2ccc(Cl)cc2)ccc1=O)c1ccccc1
  0, -1
Cc1ccc(-n2c(N3CCCC(C(=O)NCC4CC4)C3)nc3ccsc3c2=O)cc1 (centres undefined)
  -1, -4
CCc1cccc(N(Cc2nnc3n2CCCCC3)C(=O)Nc2ccc(OC)cc2)c1
  7, 6
COc1ccc(CN2CCN(C(=O)c3cccs3)CC2)c(OC)c1OC
  -7, -13
COc1cc(NC2CCCN(C(=O)c3ccco3)C2)ncn1 (centres undefined)
  0, 19
COc1cc(N2CCCC(Cn3ccnc3)C2)ncn1 (centres undefined)
  5, 1
NS(=O)(=O)c1ccc(Sc2ccc3c(c2)OCCO3)nc1
  -3, -5
CCn1c(CC2CCN(Cc3cccnc3OC)CC2)n[nH]c1=O
  7, 3
O=C(c1cc2n(n1)C(C(F)(F)F)CC(c1ccco1)N2)N1CCSCC1 (centres undefined)
  0, -4
COc1ccc(N2C(=O)/C(=C\c3ccco3)N(C)C2=S)c([N+](=O)[O-])c1
  24, 25
CC(C)c1nc(SCc2cc(-c3ccco3)on2)n[nH]1
  17, 11

Screening data as filed in PubChem BioAssay.

Not all compounds are listed, so the mix of outcomes need not match the whole.
